VACV mCherry inh – vaccinia inhibition (mCherry reporter). Potency, µM (titrated, usually from 36.5 µM), for inactives: top-dose activity change, negative = inhibition, usual class: inhibitors. AID 720579. 0.63% of 310,000 active. Vaccinia virus mCherry reporter infection, fluorescence; about a quarter of the inactives have no number; active = well fitted inhibition curve with a large enough effect; inconclusive = small, poorly fitted or top-dose-only effect; inactive = no such curve, though single readings can be large or run the other way; tested in A549 cells; further: nearly all actives have a fitted effect of over 35% in size; inactives centre near -10
VACV Venus inh – vaccinia inhibition (Venus reporter) | Vaccinia virus Venus reporter expression, fluorescence | Potency, µM (titrated, usually from 36.5 µM), for the others: top-dose activity change, negative = inhibition, most hits filed as inhibitors | 0.46% of 330,000 active | AID 720580; active means well fitted inhibition curve with a large enough effect; inconclusive means small, poorly fitted or top-dose-only effect; inactive means no such curve, though single readings can be large or run the other way; tested in A549 cells; further: nearly all actives have a fitted effect of over 30% in size; inactives centre near -10
Numbers without * were called inactive; i = inactive; ? = inconclusive; . = not tested or not shown; [ ] = another dose, or the depositor's remark. On the % scale 0 is the no-effect control and ±100 the full control effect; potency means the concentration at half of the fitted maximal effect.

SMILES	VACV Venus inh	VACV mCherry inh
Cc1ccc(S(=O)(=O)Nc2c(C)[nH]c(=O)[nH]c2=O)cc1C	-5%	-13%
Cc1cc(C)cc(C(=O)N2CCN(c3ccccn3)CC2)c1	-10%	-8%
O=C1C2C3C=CC([C@@H]2C(=O)N1c1nccs1)C31CC1 (stereo not given in full)	-7%	.
O=Cc1cccc(C=O)c1	-18%	i
O=C1C2CC=CCC2C(=O)N1Cc1nnc(-c2ccccc2Br)o1 (stereo not given)	-4%	-2%
Cc1ccc(-c2nn(CC(=O)NC3CCCCC3)c3c2cnc2ccc(F)cc23)cc1C	-2%	-7%
COc1cc2ccc(=O)oc2c(O[C@@H]2O[C@H](CO)[C@@H](O)[C@H](O)[C@H]2O)c1O	11%	i
COc1ccc(OCc2nnc(SCC(=O)Nc3oc(C)c4c(C)n[nH]c(=O)c34)n2C)cc1	-6%	-2%
CCc1ccccc1NC(=O)N1CCc2cc(OC)c(OC)cc2C1CC(=O)OC (stereo not given)	-14%	i
CCOc1ccccc1C(O)C1=CC(=O)c2ccccc2C1=O (stereo not given)	0%	-9%
O=C(Cn1ccc2ccccc2c1=O)NCC(=O)Nc1ccc(F)cc1F	-1%	-24%
Cc1sc(NC(=O)C2CSC3(C)CCC(=O)N23)nc1-c1ccc(F)cc1 (stereo not given)	-29%	-27%
Cc1ccc(CNC(=O)c2cc3c(-c4ccc(Cl)cc4)nn(C)c3s2)o1	-25%	-5%
Cc1cc(C)c(S(C)(=O)=O)c(Oc2ccc(F)cc2)n1	-10%	-7%
C=CCC(C)(NCc1ccccc1)c1ccco1 (stereo not given)	9%	7%

Gathered by group: the compounds so far containing a furan ring, fused or not (3)
SMILES	VACV Venus inh	VACV mCherry inh
COc1ccc(OCc2nnc(SCC(=O)Nc3oc(C)c4c(C)n[nH]c(=O)c34)n2C)cc1	-6%	-2%
Cc1ccc(CNC(=O)c2cc3c(-c4ccc(Cl)cc4)nn(C)c3s2)o1	-25%	-5%
C=CCC(C)(NCc1ccccc1)c1ccco1 (stereo not given)	9%	7%

Next section.
SMILES	VACV Venus inh	VACV mCherry inh
CCOc1ncccc1C(=O)Nc1ccc(S(=O)(=O)N2CCCC2)cc1	-8%	-3%
O=C1CCCc2nc(NCc3ccco3)ncc21	-4%	.
COc1ccc(NC(=O)c2c(NCc3cccs3)sc3c2CCCC3)cc1	-18%	-8%
O=C(CCC(=O)Nc1ccc(F)cc1)N/N=C/c1ccc(O)cc1	-12%	-15%
O=C1NCCN1Cc1ccc(Cl)cc1	-3%	-1%
CC12CC(=O)C3C(CCC4CC=CCC43C)C1CCC2=O (stereo not given)	-10%	-14%
COc1ccc(S(=O)(=O)N(CC(=O)N2CCC(C)CC2)c2ccc(C)cc2)cc1	-7%	-6%
O=C(c1ccc(F)cc1)c1cn(Cc2ccccc2)c2cc3c(cc2c1=O)OCO3	0%	-8%
CC(C)[C@@H](C(=O)OCC(=O)Nc1ccc2c(c1)OCO2)N1C(=O)c2ccccc2C1=O	-16%	-22%
O=C(Nc1sc2c(c1C(=O)Nc1ccccc1Cl)CCCC2)c1ccccc1F	-15%	-19%
O=C(Nc1cccc(-c2cn3ccsc3n2)c1)c1ccccc1	6%	.
CCc1nc(SCC(=O)Nc2nnc(CC(C)C)s2)n[nH]1	1%	-4%
O=C(COc1ccc(Cl)cc1)Nc1nnc(-c2ccc3c(c2)CCCC3)o1	-24%	-9%
CCOc1ccc(CNC(=O)c2cnc(SC)nc2C)cc1	0%	-3%
CCOC(=O)[C@]12CCCC=C1N(Cc1ccc(Cl)cc1Cl)C(=O)[C@H](CC(=O)NCc1ccc(C)o1)C2	-18%	-16%

Later entries
SMILES	VACV Venus inh	VACV mCherry inh
N#Cc1c(NC(=O)CSc2nnnn2C2CCCCC2)sc2c1CCCC2	1%	-5%
C[C@@]12CC(=O)NC1N(C(=O)c1cccc(C(F)(F)F)c1)C(c1ccccc1O)C2 (stereo not given in full)	-15%	-7%
Cc1nc2cc(-c3cccc(F)c3)nn2c(C)c1CCC(=O)NC(C)c1ccccc1 (stereo not given)	-16%	-14%
CCCC(=O)c1c[nH]c(C(=O)NCCc2ccccn2)c1	-6%	.
CC1(C(=O)N/N=C/c2ccccc2)CC1(Br)Br (stereo not given)	-10%	-6%
NC(=O)C(CCc1nc2ccccc2[nH]1)NS(=O)(=O)c1ccccc1 (stereo not given)	-13%	-10%
C/C(Cn1nnc([N+](=O)[O-])n1)=N\NC(=O)c1ccccc1Cl	?	?
O=C(Nc1ccc(O)c(-c2nc3ccccc3o2)c1)c1ccc(-c2cccc(Cl)c2)o1	1%	i
CC(=O)Nc1ccc(OCC(O)Cn2nc(C)c(C)c2C)cc1 (stereo not given)	-10%	i
CC(=O)N1C[C@H]2CON(C)[C@H]2C[C@H]1c1cccc(-c2ccccc2)c1	-3%	-19%
CCOc1ccc(C2c3c(-c4ccccc4O)n[nH]c3C(=O)N2Cc2ccncc2)cc1 (stereo not given)	?	?
CC(=O)c1c(C)oc2c1cc(NS(=O)(=O)c1c(C)cc(C)cc1C)c1ccccc12	13%	i
CCOC(=O)c1ccc(N2C(=O)c3n[nH]c(-c4ccco4)c3C2c2ccc([N+](=O)[O-])cc2)cc1 (stereo not given)	?	?
CCC(CC)c1nnc(NC(=O)C2CC(=O)N(CCc3ccc(F)cc3)C2)s1 (stereo not given)	-3%	?
CN(C)S(=O)(=O)c1cccc(NC(=O)c2ccc(NS(=O)(=O)c3cccs3)cc2)c1	-21%	-13%

Single records, from the list above.
CC(=O)c1c(C)oc2c1cc(NS(=O)(=O)c1c(C)cc(C)cc1C)c1ccccc12 as listed: VACV Venus inh = 13%; VACV mCherry inh = i
NC(=O)C(CCc1nc2ccccc2[nH]1)NS(=O)(=O)c1ccccc1 (stereo not given) as listed: VACV Venus inh = -13%; VACV mCherry inh = -10%
C[C@@]12CC(=O)NC1N(C(=O)c1cccc(C(F)(F)F)c1)C(c1ccccc1O)C2 (stereo not given in full) as listed: VACV Venus inh = -15%; VACV mCherry inh = -7%

An excerpt of these results, with each value named.
> Cc1nc2cc(-c3cccc(F)c3)nn2c(C)c1CCC(=O)NC(C)c1ccccc1 (stereo not given)
  VACV Venus inh: -16%
  VACV mCherry inh: -14%
> CCCC(=O)c1c[nH]c(C(=O)NCCc2ccccn2)c1
  VACV Venus inh: -6%
  VACV mCherry inh: .
> CC1(C(=O)N/N=C/c2ccccc2)CC1(Br)Br (stereo not given)
  VACV Venus inh: -10%
  VACV mCherry inh: -6%
> NC(=O)C(CCc1nc2ccccc2[nH]1)NS(=O)(=O)c1ccccc1 (stereo not given)
  VACV Venus inh: -13%
  VACV mCherry inh: -10%

Other entries follow:
SMILES	VACV Venus inh	VACV mCherry inh
O=C(c1cc([N+](=O)[O-])[nH]n1)N1CCSCC1	-7%	i
COc1cccc(/C=N/Nc2ncc(C(F)(F)F)cc2Cl)c1O	?	11µM*
O=C(O)c1cccc2c1C(=O)N(CC1CCCO1)C2 (stereo not given)	-2%	7%
CCOc1ccc(N2CC(C(=O)NNC(=O)c3ccc(Br)cc3)CC2=O)cc1 (stereo not given)	-5%	-16%
CCOC(=O)/C(C#N)=C\c1ccc(OC)c(OC)c1	-1%	-7%
CCCCn1c(O)c(/C=N/N2CCCCC2c2cccnc2)c(=O)[nH]c1=S (stereo not given)	-11%	i
CC(=O)NC(CC(=O)NCCOc1ccccc1F)c1ccccc1 (stereo not given)	-5%	i
CC(=O)NC1=NN(C(C)=O)C(c2ccco2)S1 (stereo not given)	-1%	-8%
CC(C)n1cc(-c2ccc(Cl)cc2)cc(C#N)c1=O	-4%	-19%[1.46 µM]
O=C1NC(=O)/C(=C\c2ccccc2OCc2cccc([N+](=O)[O-])c2)N1	?	?
CCCN(CCC)CCCNC(=O)C1CCCN(Cc2nc(-c3ccc(Cl)cc3)oc2C)C1 (stereo not given)	-27%	?
CN(Cc1ccccc1)c1cc2c(c3c1ccn3C)C1CCC2O1 (stereo not given)	-7%	1%
O=C(Nc1ccc(Nc2ccncc2)cc1)c1ccc([N+](=O)[O-])cc1	-19%	-6%
COc1ccc(C(=O)c2[nH]c(N)c(C(=O)NCCc3c[nH]c4ccccc34)c2-c2ccc(Br)cc2)cc1	-14%	-8%
CC(C)=CCN1CCN(C/C(Cl)=C/c2ccccc2)CC1CCO (stereo not given)	-12%	-29%

The listing continues:
SMILES	VACV Venus inh	VACV mCherry inh
O=Cc1ccc(OCc2ccc3ccccc3c2)cc1	-12%	-8%
CCOC(=O)c1c(N)sc2c(OC)c(Br)ccc12	-20%	?
CC(C)Cc1nnc(NC(=O)CN2C(=O)NC3(CC(C)CC(C)(C)C3)C2=O)s1 (stereo not given)	-20%	0%
NS(=O)(=O)c1ccc(CNC(=S)Nc2ccc(Cl)c(Cl)c2)cc1	-13%	i
COCCn1c(C)cc(C(=O)CN2CCCCC2)c1C	-13%	i
CCCS(=O)(=O)c1c(S(=O)(=O)CCC)c2cc(C(C)(C)C)ccn2c1C(=O)c1ccc(OC)c(OC)c1	-6%[7.34 µM]	-5%[7.34 µM]
CCOC(=O)C1(C)CCCN(C(=O)c2ccc3ccccc3c2)C1 (stereo not given)	5%	19%
CC(C)(C)c1ccc(C(=O)c2c[nH]c(C(=O)NCc3cccs3)c2)cc1	-1%	.
Cc1nnc(C)n1/N=C/c1cccs1	-16%	i
O=C1NC(=O)N(Cc2ccco2)C(=O)/C1=C/c1cccn1CCOc1ccccc1Cl	0%	i
Cc1occc1C(=O)NNC(=O)c1ccc(S(=O)(=O)N(C)C)cc1	-1%	-14%
CCOc1ccc(CNC(=O)c2cnc3sc(N(CC)CC)nn3c2=O)cc1	-14%	-23%
CCOc1ccc(C(=O)CCN2CCCCCC2)cc1	-16%	.
C=CCN(c1ccc(C(=O)Nc2ccc(C)cc2)cc1)S(C)(=O)=O	-11%	i
Cc1ccc2occ(-c3cc(-c4ccccc4)nc4c3COc3ccccc3-4)c(=O)c2c1	2%	-2%

More records:
SMILES	VACV Venus inh	VACV mCherry inh
Cc1ccc(Nc2nc(NCc3ccco3)nc3nccnc23)c(C)c1	-5%	-7%
CC1(C)CC(NC(=O)CC(c2ccccc2)c2ccccc2)CC(C)(C)N1	-16%	-23%
CCN(CC(=O)Nc1c(F)cccc1F)C(=O)CCCN1C(=O)c2cccc3cccc(c23)C1=O	-20%	-5%
Cc1ccc(N(C)S(=O)(=O)c2c(C)[nH]c(C)c2C(=O)N2CCCC2)cc1	-17%[7.34 µM]	0%[7.34 µM]
Cc1ccc(C(C)(C)C)c(OCC(=O)NCCc2nc3ccccc3[nH]2)c1	-5%	-5%
CCOC(=O)c1sc(N2C(=O)C(O)=C(C(=O)c3ccc(C)o3)C2c2ccc(OC)c(OC)c2)nc1C (stereo not given)	-8%	-19%
CCOC(=O)CC1(C)Oc2ccccc2N1S(=O)(=O)c1ccc(C)cc1 (stereo not given)	-29%	?
CCOC(=O)C(NS(=O)(=O)c1ccccc1)(C(F)(F)F)P(=O)(OCC(C)C)OCC(C)C (stereo not given)	?	-5%[1.46 µM]
O=C(COc1ccc(S(=O)(=O)N2CCCC2)cc1Cl)NCc1cccnc1	-8%	-12%
Cc1ccc(-n2c(O)c(C=NCc3ccccn3)c3ccccc3c2=O)cc1	-24%	-2%
CCOC(=O)c1ccc(N2CCN(c3ccc(F)cc3)CC2)c(NC(=O)Nc2ccc(CC)cc2)c1	-5%	-12%
Cc1cccn2c(CN(C)C3CCCc4ccccc43)c(C(=O)N3CCOCC3)nc12 (stereo not given)	-11%	-17%
Cc1ccc(C)c(C(O)c2ncc(-c3ccc(C(F)(F)F)cc3)[nH]2)c1 (stereo not given)	-12%	i
